Screening data (PubChem BioAssay)
2A Renilla: lowers the Renilla signal of an FMDV 2A StopGo reporter; HEK cells with a luciferase reporter of 2A StopGo recoding; Potency, µM (top dose mostly 57.5 µM), for inactives: at the highest dose signal change, negative = less light; hit rate 0.32% among 120,000; AID 1745857; active means well fitted falling curve with a large enough effect; inconclusive means small, poorly fitted or top-dose-only effect; inactive means no such curve, though single readings can be large or run the other way; also: nearly all actives have a fitted effect of over 55% in size; overnight with compound
StopGo FLuc: FMDV 2A StopGo reporter, firefly signal; HEK cells with a luciferase reporter of 2A StopGo recoding; Potency, µM (highest dose often 57.5 µM), inactives show at the top dose signal change, negative = less light; hit rate 0.23% among 120,000; AID 1745856; active = well fitted falling curve with a large enough effect; inconclusive = small, poorly fitted or top-dose-only effect; inactive = no such curve, though single readings can be large or run the other way; also: nearly all actives have a fitted effect of over 60% in size; overnight with compound
Numbers without * were called inactive; ? = inconclusive; & = joins results of further samples; [ ] = dose if it differs, or a comment. % is scaled to controls: 0 for no effect and ±100 for the full control effect; potency is read from the fitted curve at half-maximal effect. The order is random. About 0.55% of those tested had a hit in this group.

Second line of a record – 2A Renilla, StopGo FLuc
- COc1cc(CN(C(=O)c2ccc(OC(C)C)cc2)C2CCS(=O)(=O)C2)cc(OC)c1OC (stereo not given)
  -13.4%, -4.6%
- Cc1coc2cc3oc(=O)c(CC(=O)NCc4cccc(Cl)c4)c(C)c3cc12
  90.9%[activator], -4.8%
- CCc1nnsc1C(=O)NCC1(c2cccc(F)c2)CCOCC1
  -11.7%, -8.5%
- CCOC(=O)c1ccc(NC(=O)c2cc[n+]([O-])cc2)cc1
  1.7%, 0.0%
- Cc1ccc(Cl)cc1NC(=O)c1cc(S(=O)(=O)N2CCCCCC2)cn1C
  -5.5%, -4.2%
- CCCCCn1c(SCC(=O)Nc2ccccc2)nc2c1c(=O)[nH]c(=O)n2C
  14.2%, 64.0%[activator]
- Cc1cc(C)cc(COC(=O)c2cnccn2)c1
  -6.7%, 1.4%
- COc1ccc(CNC(=O)CCc2nc3cccnc3n2Cc2ccccc2)cc1
  11.6%, -11.5%
- CCCCCCC1COC(c2ccc(O)cc2)OC1 (stereo not given)
  8.4%, 17.6%
- CCOc1ccc(CNC(=O)CCn2nc(C)c3c(C)n(-c4ccccc4)nc3c2=O)cc1
  -4.3%, -4.6%
- CC(NCCC1(c2ccccc2)CCOC(C)(C)C1)c1ccccc1 (stereo not given)
  51.3%[activator], -1.9%
- O=C(Cc1ccc(F)cc1)NCCc1csc(-c2cccc(F)c2)n1
  2.7%, -6.4%
- COC(C)C(=O)NC(C)c1ccc2c(c1)CCC(=O)N2 (stereo not given)
  8.1%, 0.0%
- O=C(Nc1ccc(F)c(Cl)c1)C1CCN(c2ncnc3nc[nH]c23)CC1
  -4.9%, -0.6%
- CC(=O)N1CCN(c2oc(/C=C/c3ccc(F)cc3)nc2C#N)CC1
  -8.7%, 10.8%
- CC(C)(C)c1ccc(C(NC(=O)c2ccccc2)NC(=O)c2ccccc2)cc1
  39.2%[activator], -12.1%
- O=C(O)Cn1nc(-c2ccccc2)c2ccccc2c1=O
  -1.5%, 7.2%
- Cc1cccc(NC(=O)CCS(=O)(=O)c2cc(Br)cc3c2N(C(=O)C2CC2)CC3)c1
  -2.6%, -3.0%
- CCOc1ccc2c(c1)c(C(C)=O)c(C)n2-c1ccc(OC)cc1
  -16.4%, -17.8%
- COc1cc(F)c(S(=O)(=O)Nc2ccccc2-c2n[nH]c(C3CC3)n2)cc1OC
  129.5%[activator], -0.8%
- CC(C)(C)c1ccc(OCCn2cc(C(=O)C(F)(F)F)c3ccccc32)cc1
  22.3%, 20.2%
- COc1cccc(NC(=O)Cn2c(=O)n(Cc3ccccc3)c(=O)c3c4c(sc32)CN(C(C)=O)CC4)c1
  21.3%, 7.5%
- COCCc1nn2c(=O)cc(COC(=O)c3ccc(C(C)(C)C)cc3)nc2s1
  -5.1%, 0.8%
- O=C(Cc1ccc(Br)cc1)OCc1cc(-c2ccc(Cl)cc2)no1
  7.3%, 109.3%[activator]
- COc1ccc(CCNC(=O)c2c(O)nc3ccccn3c2=O)cc1
  -2.8%, 13.6%
- CC(=O)c1c(F)cccc1N1CCN(c2cccc(C(F)(F)F)c2)CC1
  ?, ?
- CCCC(=O)Nc1ccccc1C(=O)N1CCN(C(c2ccccc2)c2ccccc2)CC1
  28.3%, -8.0%
- Cc1cccc(NC(=O)Cn2nnc(C(=O)NCc3ccco3)c2N)c1
  -11.3%, -5.2%
- CCn1nc(C(=O)OCC(=O)Nc2nc(-c3ccc(OC)cc3)cs2)c2ccccc2c1=O
  -21.6%, 132.7%[activator]
- CCOc1ccc(C(=O)NCc2nnnn2-c2ccc(C)c(C)c2)cc1OCC
  4.2%, -3.6%

Two of the compounds above, as labelled records:
Compound: Cc1cccc(NC(=O)CCS(=O)(=O)c2cc(Br)cc3c2N(C(=O)C2CC2)CC3)c1
  2A Renilla: -2.6%
  StopGo FLuc: -3.0%
Compound: CCOc1ccc2c(c1)c(C(C)=O)c(C)n2-c1ccc(OC)cc1
  2A Renilla: -16.4%
  StopGo FLuc: -17.8%

Next entries.
Second line of a record – 2A Renilla, StopGo FLuc
- O=C(COc1ccc([N+](=O)[O-])cc1Cl)c1ccc2c(c1)OCCO2
  19.8%, 20.2%
- COc1cc(OC)c(N(C)C(=O)Cn2ncc3c(=O)oc4ccccc4c32)cc1Cl
  -11.2%, -14.7%
- CCCCC(=O)NCCCCNC(=O)CCCC
  10.0%, 1.6%
- O=C(NCC1(c2ccccc2)CC1)c1ccc(S(=O)(=O)N2CCOCC2)cc1
  -10.3%, -10.3%
- N#Cc1cc2c(nc1N1CCN(C(C(=O)O)c3c[nH]c4ccccc34)CC1)CCCC2 (stereo not given)
  -20.0%, -19.4%
- CCCc1cc(=O)[nH]c2nnc(SCCC(C)C)n12
  12.6%, -7.2%
- COc1ccc(-n2c(=O)[nH]c3cc(C(=O)NCCc4ccccc4)ccc3c2=O)cc1OC
  -17.8%, -23.1%
- CCc1ccc(NC(=O)Cn2c(=O)n(-c3ccc(OC)cc3)c(=O)c3ccc(C(=O)NCc4ccc(C)cc4)cc32)cc1
  -12.3%, -20.5%
- CCOCCn1c(N2CCN(Cc3ccc(Cl)c(Cl)c3)CC2)nc2c1c(=O)[nH]c(=O)n2C
  5.4%, 6.5%
- CCCN(CCC)C(=O)C1CCN(c2ncnc3c2nc2n3CCCCC2)CC1
  6.0%, -3.0%
- Cc1cccc(C(=O)OCC(=O)c2cccs2)c1O
  25.0%, 20.3%
- O=C1Cc2cc(C(=O)CSc3nnc(-c4ccncc4)o3)c(Cl)cc2N1
  -15.0%, -5.1%
- O=[N+]([O-])c1ccc(Nc2ccc(Cl)cc2)c2nonc12
  ?, ?
- CSc1ccccc1C(=O)Nc1ccc(CSc2ccccc2)cc1
  -4.3%, 19.5%
- O=C(OCCN1CCCC1)C1(c2ccccc2)CCCC1
  -6.5%, -0.8%
- Cc1ccc(CN(C(=O)COc2ccccc2[N+](=O)[O-])c2ccccn2)cc1
  -7.3%, 0.0%
- COC(=O)c1nnn(CC(=O)NC(=O)Nc2ccc(F)cc2)c1C(=O)OC
  -7.8%, -14.1%
- O=C(NC(NC(=O)c1ccccc1)c1ccccc1F)c1ccccc1
  62.2%[activator], 2.1%
- O=C(NCc1nc(-c2ccc(Cl)cc2)no1)Nc1cccc2ccccc12
  -5.4%, 7.7%
- Cc1[nH]c2ccccc2c1C(=O)C(C)OC(=O)c1cccc(F)c1 (stereo not given)
  -14.3%[1.06 µM], ?
- Cc1nn(-c2ccc3nnc(C)n3n2)c2c1C(c1ccccc1Cl)CC(=O)N2 (stereo not given)
  -20.0%, -16.8%
- CC(C)c1ccc(-c2cc(=O)c3cc(NC(=O)C(C)(C)C)ccc3o2)cc1
  -5.1%, 37.0%[activator]
- COc1cc(C(=O)NCCc2csc3nc(-c4ccccc4C)nn23)cc(OC)c1OC
  5.1%, -11.0%
- Cc1ccc(N2CC(NC(=O)C3CCCC3)CC2=O)cc1 (stereo not given)
  -2.6%, -23.5%
- COc1ccc(C(=O)O)cc1Br
  -5.9%, 11.0%
- Cc1c(C(=O)NCc2ccc(F)cc2)sc2nc3n(c(=O)c12)CCC3
  -10.6%, -6.7%
- CN(c1ccc(Cl)cc1)S(=O)(=O)c1nnc(NC(=O)c2ccco2)s1
  17.9%, -24.6%
- CC(=O)c1cccc(NC(=O)c2cccc[n+]2[O-])c1
  -3.5%, 0.0%
- Cc1noc(C)c1Cn1c(=O)c2c(ncn2Cc2ccccc2)n(Cc2ccccc2)c1=O
  -0.1%, 14.8%
- Cc1ccc(CCNc2nc3ccccc3c3nc(-c4ccccc4)nn23)cc1
  ?, -3.6%
- Cc1ccc2[nH]cc(CCNC(=O)NC3CCCCC3)c2c1
  8.3%, 1.3%
- O=C(NC1CC1)c1ccc(CNc2nc3ccccc3o2)cc1
  -7.2%, 35.5%[activator]
- CCC(C)[C@H](NC(=O)[C@@H]1Cc2ccccc2CN1)C(=O)Nc1cccc(C)c1 (stereo not given in full)
  3.7%, 0.0%
- COc1ccc2c(c1)CC/C(=C\c1ccc(SC)cc1)C2=O
  0.0%, 0.0%
- Cc1cnc2c(c1SCC(=O)NCc1ccccc1Cl)c(=O)n(C)c(=O)n2C
  -3.3%, 3.0%
- O=C(COC(=O)C1C2CCC(C2)C1C(=O)OCC(=O)c1ccc(OC(=O)c2ccco2)cc1)c1ccc(OC(=O)c2ccco2)cc1 (stereo not given)
  -1.9%, -6.8%
- COc1ccc2[nH]c(C)c(C(=O)CN3CCC(C(N)=O)CC3)c2c1
  -1.6%, 14.8%
- COc1ccc(NC(=O)Cn2c(=O)n(-c3ccc(C)c(C)c3)c(=O)c3c(C)c(C)sc32)cc1
  7.7%, -3.4%
- Cc1c(C(=O)Nc2ccccc2NS(=O)(=O)c2cccs2)cccc1[N+](=O)[O-]
  -9.8%, ?
- COc1ccccc1C(C)NC(=O)c1nn(C)c(=O)c2ccccc12 (stereo not given)
  ?, ?
- COc1ccc(C)cc1NC(=O)c1ccc2c(Cl)c3c(nc2c1)CCC3
  -7.0%, 58.8%[activator]
- O=C(NC12CC3CC(CC(C3)C1)C2)C1CCCCC1
  21.4%, 168.0%[activator]
- O=C(NCc1ccc(F)cc1)c1ccc(CSCc2cccc(Cl)c2)o1
  -5.3%, -7.0%
- CCCN(Cc1cc2cccc(C)c2[nH]c1=O)C(C)=O
  -22.8%, -8.6%
- Cn1cnc(S(=O)(=O)N2CCCC(C(=O)NCc3ccccc3)C2)c1 (stereo not given)
  16.7%&19.3%, -5.7%&-20.4%
- O=c1cc(CN2CCN(C/C=C/c3ccccc3)CC2)c2cc(O)ccc2o1
  5.3%&-21.6%, -3.2%&-11.6%
- O=C(NC1CCCCC1)/C(=C/c1ccc(Cl)cc1)NC(=O)c1ccccc1
  -12.9%, 0.3%
- Cc1ccc(-c2nc3n(n2)C(c2ccccc2Cl)C=C(c2ccc(Cl)cc2)N3)cc1 (stereo not given)
  -12.1%, -11.1%
- COc1cc2c(cc1OC)C(COc1ccc(F)cc1)N(C(=O)Cc1ccc(F)cc1)CC2 (stereo not given)
  9.7%, -15.5%
- O=C(CCc1ccco1)Nc1ccc(N2CCOCC2)cn1
  3.7%, 63.0%[activator]
- CCOCCCNC(=O)Cn1nc(C)c2ccccc2c1=O
  18.7%, 48.8%
- COc1ccc(C(CNC(=O)COc2cc(C)cc(C)c2)N2CCOCC2)cc1 (stereo not given)
  -8.6%, -15.0%
- O=C(OCc1cc(=O)oc2cc(O)ccc12)c1ccc(F)cc1F
  -9.5%, 13.5%
- CCNC(=O)NC(=O)C(C)OC(=O)Cc1c[nH]c2ccccc12 (stereo not given)
  25.6%, 16.7%
- CC(=O)c1ccc(NC(=O)CSc2nnc(N)s2)cc1
  -8.4%, 124.7%[activator]
- CC1(C)CCCC2(C)C1CCC1(C)OC(=O)CC12 (stereo not given)
  -16.0%, -12.8%
- CCSc1nnc2n(C)c(=O)c3c(n12)-c1ccccc1CC31CCCCC1
  -7.5%, -12.6%
- CC(Sc1nc(Cl)nc2nc[nH]c12)C(=O)NCCc1ccc(O)cc1 (stereo not given)
  1.0%, -0.2%
- CCCCCCOc1ccc(C(=O)COC(=O)c2ccc(Br)cc2)cc1
  2.0%, 56.2%[activator]
- O=C(NCC(c1cccs1)N1CCCCCC1)c1cc(=O)c2cc(Cl)ccc2o1 (stereo not given)
  -6.9%, -0.6%

Next compounds follow.
Second line of a record – 2A Renilla, StopGo FLuc
- Cc1ccc(CNS(=O)(=O)c2cc(-c3cc(C(F)(F)F)on3)ccc2C)cc1
  0.0%, 14.2%
- CCc1ccc(/C=C/C(=O)c2ccc(CC(=O)O)cc2)cc1
  ?, ?
- CC(=O)Nc1ccc(NC(=O)c2ccc3c(c2)CCN3S(=O)(=O)c2ccc(Cl)cc2)cc1
  12.2%, 10.8%
- COCCn1c(SCC(=O)c2cc(C)n(CC(F)(F)F)c2C)nnc1-c1ccc(Cl)cc1
  102.5%[activator], 4.4%
- c1cc(CNC2C3CC4CC(C3)CC2C4)ccn1 (stereo not given)
  -2.1%, 11.3%
- CC(C)(C)C(=O)NCCC(=O)Nc1ccc2c(c1)CCC2
  -1.6%, 0.0%
- COCCNC(=O)CN1C(=O)COc2ccc(S(=O)(=O)N3CCOCC3)cc21
  -5.5%, -19.3%
- Cc1ccc(S(=O)(=O)N(C)C(C)c2cc3ccccc3o2)c(C)c1 (stereo not given)
  ?, ?
- c1ccc(Nc2ccc(-n3cccc3)cc2)cc1
  1.6%, 78.3%[activator]
- O=C(CCS(=O)(=O)c1ccc2c(c1)CCN2C(=O)C1CC1)NCc1ccc(F)cc1
  5.9%, 7.7%
- CC(C)C(C)NC(=O)CSc1nnc(-c2c[nH]c3ccccc23)o1 (stereo not given)
  11.9%, 23.7%
- CCc1ccc(CN(Cc2ccco2)c2cnc(S(C)(=O)=O)nc2C(=O)Nc2ccccc2Cl)cc1
  5.4%, -0.9%
- Cc1ccc(-c2cc(N)n(-c3ccc(C)cc3)n2)cc1
  -9.7%, 32.0%
- COC(=O)c1sccc1S(=O)(=O)N(CC(=O)NCc1ccc(F)cc1)c1ccc(C)c(C)c1
  0.0%, -15.1%
- Cc1cccc(-c2nc(CCN(C)S(=O)(=O)c3ccc(C)c4nsnc34)no2)c1
  9.7%, 6.7%
- CC(C)COc1ccc(C(=O)N(Cc2ccc(N(C)C)cc2)Cc2ccco2)cc1
  71.2%[activator], 21.5%
- O=C(NCc1cccs1)c1cc2ccccc2[nH]1
  14.8%, 17.3%
- CCOC(=O)c1cccc(NS(=O)(=O)c2cc(Br)cc3c2N(C(=O)C2CC2)CC3)c1
  33.7%[activator], -5.8%
- COc1cccc(C(=O)N2CCN(c3oc(-c4cccs4)nc3C#N)CC2)c1
  -3.6%, 1.3%
- COC(=O)c1nnn(CC(=O)Nc2ccc(F)cc2F)c1C(=O)OC
  -8.9%, -10.9%
- CCOc1cc(-c2ccc(OC(=O)c3ccccc3F)cc2)cc(=O)c2c(C)oc(C)c12
  -16.8%, -14.7%
